# Screening results as filed in PubChem BioAssay.
# LT uptake inh: blocks cellular internalization of anthrax lethal toxin. Cells, anthrax lethal toxin internalization, FRET ratio (460/530). Potency, µM (titrated, usually from 40 µM), inactives show at the highest dose activity change, negative = inhibition, actives largely listed as inhibitors. 70,000 tested, 0.67% active. AID 912; active = well fitted falling ratio curve with the 530 nm signal flat; inconclusive = other ratio curves, or a change in one channel alone; inactive = flat curves in the ratio and both channels; the % refers to the ratio; also: % is scaled to controls: 0 for no effect and ±100 for the full control effect; nearly all actives have a fitted effect of over 50% in size; tested in ME-180 cells; beta-lactamase reporter
# SmPrx2 inh: blocks S. mansoni peroxiredoxin 2 enzymatic activity | 65,000 tested, 0.07% active | Potency, µM | S. mansoni Prx2 activity coupled to TGR/GSH (TGR is thioredoxin glutathione reductase), NADPH fluorescence loss, qHTS; some inactives read as strong as hits | AID 448; active means full or partial inhibition curve with a strong effect at the top dose; inconclusive means weaker partial or single-point curve; inactive means no accepted curve; also: series up to 57 µM; many of its hits are not listed in these tables
#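 Prx2 inhibition was measured as reduced NADPH consumption when electrons flowed from NADPH through TGR and glutathione to Prx2 and H2O2. Plates were read kinetically over 8 min; enzyme reagents were held at 4 deg C during dispensing.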
# Starred values were filed as active, the others as inactive; ? = inconclusive; · = no result given; [ ] = another dose, or the depositor's remark. Potency is read from the fitted curve at half-maximal effect.
# Order of results – LT uptake inh | SmPrx2 inh
> O=C(OC1CCOC1=O)c1ccc2ncsc2c1 (configuration not stated)
 : 0% | >57
> CN1CCN(c2nc3c(c(=O)n(C)c(=O)n3C)n2CC(N)=O)CC1
 : 2% | >57
> Cc1cccc(CN2CCN(CC(=O)NCc3ccc(F)cc3)C2=O)c1
 : -6% | >57
> COc1ccccc1NC(=O)CN1C(=O)NC(C)(C)C1=O
 : -8% | >57
> CN(CCc1ccccn1)C(=O)Nc1ccc(F)cc1
 : -15% | >57
> CCOC(=O)C1CCCN(CC(=O)Nc2c(C(=O)OC)[nH]c3ccccc23)C1 (configuration not stated)
 : · | >57
> N#Cc1cc2ccccc2nc1SCC(=O)Nc1ccccc1N1CCOCC1
 : 1% | >57
> C=CCn1c(SCC(O)Cn2c3ccccc3c3ccccc32)nnc1-c1ccco1 (configuration not stated)
 : ? | >57
> CCCCNC(=O)c1nnn(-c2ccccc2)c1N
 : 7% | >57
> COc1cc(C(=O)NCC(c2cccnc2)N2CCN(C)CC2)cc(OC)c1OC (configuration not stated)
 : 3% | >57
> O=S1(=O)CC(N2CCOCC2)c2ccccc21 (configuration not stated)
 : -5% | >57
> CCOC(=O)C1CCN(/C=C2/C(=O)NC(=O)N(c3ccc(OCC)cc3)C2=O)CC1
 : -1% | ·
> CCOc1cc(C(=O)NCCN2CCOCC2)cc(OCC)c1OCC
 : 13% | ·
> c1coc(CNc2nc3ccccc3n2CCN2CCOCC2)c1
 : 14% | >57
> CCSc1nnc2c(n1)OC(c1ccc(C(=O)O)cc1)N(C(C)=O)c1ccccc1-2 (configuration not stated)
 : -3% | >57
> Nc1n[nH]c(S(=O)(=O)CCCc2ccccc2)n1
 : 3% | >57
> CCC(=O)n1nc(NCc2ccc(OC)c(OC)c2)nc1NCc1ccc(OC)c(OC)c1
 : -8% | >57
> Cc1noc(NS(=O)(=O)c2ccc(NC(=O)CSc3n[nH]c(-c4ccccc4)n3)cc2)c1C
 : -2% | >57
> O=C(CSCCNS(=O)(=O)c1ccccc1)Nc1ccccc1
 : -16% | >57
> CC(C)c1nnc(NC(=O)c2c(O)c3cccc4c3n(c2=O)CCC4)s1
 : 3% | >57
> O=C(Nc1ccc(Oc2ccccc2)cc1)C1CCCO1 (configuration not stated)
 : 6% | ·
> CCOCCn1c(=O)c2c(nc3n2CCN3c2ccccc2)n(C)c1=O
 : -8% | >57
> COc1ccc(C2c3c(oc4ccccc4c3=O)C(=O)N2CC2CCCO2)cc1 (configuration not stated)
 : -9% | >57
> CCc1cccc(C)c1NC(=O)C1CCCO1 (configuration not stated)
 : -4% | ·
> O=C(NCc1ccccc1)N[C@@H](Cc1ccccc1)C(=O)O
 : · | >57
> Cc1ccc(S(=O)(=O)N2C(=S)SCC2(C)C)cc1
 : ? | ·
> OCCN(CCO)CC(O)Cn1c2ccccc2c2ccccc21 (configuration not stated)
 : -26% | >57
> COCc1cc(C)nc(SCC(=O)Nc2cccc3cccnc23)c1C#N
 : ? | >57
> CCOC(=O)CN1C(=O)C(O)=C(C(C)=O)C1c1ccccc1 (configuration not stated)
 : · | >57
> CCN(C(=O)c1cc(Cl)ccc1OC)C1CCCCC1
 : -17% | >57
> CC(C)(C)OCC(NC(=O)C(CC(N)=O)NC(=O)OC(C)(C)C)C(=O)OC(C)(C)C (configuration not stated)
 : -8% | >57
> COc1ccc(NC(=O)CS(=O)CC(=O)NC2CCCc3ccccc32)cc1 (configuration not stated)
 : -4% | >57
> O=C(Nc1nccs1)Oc1ccccc1
 : -2% | >57
> COc1ccc(C2CC(C(F)(F)F)n3ncc(C(=O)NCc4cccnc4)c3N2)cc1OC (configuration not stated)
 : 0% | >57
> CS(=O)(=O)N1CCc2cc(-c3csc(NC(=O)Cc4cccs4)n3)ccc21
 : 13µM* | >57
> COc1ccc(CCNC(=O)CC2Nc3cc(C)c(C)cc3NC2=O)cc1OC (configuration not stated)
 : 0% | >57
> CC(=O)C1=C(C)Nc2ncnn2C1c1cccc(OCc2ccccc2)c1 (configuration not stated)
 : 6% | >57
> Cn1c(COc2ccccc2)nnc1SCc1nc2ccccc2[nH]1
 : -17% | >57
> CCc1cc(=O)oc2cc(OCC(=O)OC)c(Cl)cc12
 : 9% | ·
> CCCCn1c(SCC(=O)Nc2cc(C)on2)nc2ccsc2c1=O
 : ? | >57

# An excerpt from above in order of count of non-hydrogen atoms, high to low:
# Order of results – LT uptake inh | SmPrx2 inh
> CC(C)(C)OCC(NC(=O)C(CC(N)=O)NC(=O)OC(C)(C)C)C(=O)OC(C)(C)C (configuration not stated)
 : -8% | >57
> COc1ccc(CCNC(=O)CC2Nc3cc(C)c(C)cc3NC2=O)cc1OC (configuration not stated)
 : 0% | >57
> CCN(C(=O)c1cc(Cl)ccc1OC)C1CCCCC1
 : -17% | >57

# Shown with each value named: part of the list above.
> CCOCCn1c(=O)c2c(nc3n2CCN3c2ccccc2)n(C)c1=O
  LT uptake inh = -8%
  SmPrx2 inh = >57
> O=C(Nc1ccc(Oc2ccccc2)cc1)C1CCCO1 (configuration not stated)
  LT uptake inh = 6%
  SmPrx2 inh = ·
> CCc1cc(=O)oc2cc(OCC(=O)OC)c(Cl)cc12
  LT uptake inh = 9%
  SmPrx2 inh = ·
> CC(=O)C1=C(C)Nc2ncnn2C1c1cccc(OCc2ccccc2)c1 (configuration not stated)
  LT uptake inh = 6%
  SmPrx2 inh = >57

# Next part:
# Order of results – LT uptake inh | SmPrx2 inh
> COc1ccc(OC)c(C(=O)CSc2nnnn2C)c1
 : -1% | >57
> CCCSc1nc(N)c(C#N)c(-c2ccc(C)cc2)c1C#N
 : ? | >57
> CCS(=O)(=O)NCCc1cc2ccc(C)cc2[nH]c1=O
 : 11% | >57
> O=C(c1csnn1)N1CCC2(CCCN(c3cccc(-c4ccccc4)c3)C2)CC1
 : -18% | >57
> CCc1ccc2oc(=O)cc(CN3CCCCC3C)c2c1 (configuration not stated)
 : -9% | >57
> CCOC(=O)N/N=C1/C[C@@H](O)[C@@H](O)[C@@H]2[C@@H]3C(=O)N(Cc4ccc5c(c4)OCO5)C(=O)[C@H]3CC[C@H]12
 : 2%[8 µM] | ·
> N#CCSc1nnc(C2CCCCC2)n1Cc1ccccc1
 : ? | >57
> CCOC(=O)C1=C(C)N(C)C(C)=C(C(=O)OCC)C1c1ccncc1
 : 7% | >57
> C=CCNC(=O)CN1C2CCCC1CC(NC(=O)c1ccccc1C)C2 (configuration not stated)
 : 7% | >57
> CC(=O)c1ccc(NC(=O)c2cc(CC(C)C)on2)cc1
 : -16% | >57
> CC(=O)c1cccc(NS(=O)(=O)c2c(C)noc2C)c1
 : 2% | >57
> COc1ccc(S(=O)(=O)N2CCOCC2)cc1C(C)C
 : 7% | >57
> Cc1cccc(-n2ncc3c(NCc4ccccc4)ncnc32)c1
 : ? | >57
> CCn1cnc2sc(C(=O)Nc3ccc4c(c3)OCO4)c(C)c2c1=O
 : -4% | >57
> Cn1c(SCC(=O)N2CCN(Cc3ccccc3)CC2)nnc1-c1ccncc1
 : -9% | >57
> CC12CC(NC(=O)N1c1cccc(C(=O)NCc3ccc4c(c3)OCO4)c1)c1cc(Cl)ccc1O2 (configuration not stated)
 : -29% | ?
> O=C(O)c1ccc([N+](=O)[O-])c(P(=O)(O)O)c1
 : ? | >57
> CCCc1nc2ccccc2c(=O)n1/N=C/c1ccc(O)cc1O
 : · | >57
> O=S1(=O)CC2(N3CCOCC3)CCCCC21 (configuration not stated)
 : 6% | ·
> COc1ccc(C(=O)OCCN=C2NS(=O)(=O)c3ccccc32)cc1OC
 : 3% | >57
> CCCCNC(=O)CCn1c(=O)c2ccccc2n(CC(=O)Nc2ccccc2OCC)c1=O
 : -3% | >57
> Cc1ccccc1N1CCN(S(=O)(=O)c2ccc3oc(=O)ccc3c2)CC1
 : -11% | >57
> COc1ccc(Nc2nc(N)nc(C(F)(F)F)n2)c(OC)c1
 : ? | >57
> O=C(C1CC(c2ccc(F)cc2)=NO1)N1CCN(Cc2ccccc2)CC1 (configuration not stated)
 : -25% | >57
> O=P(OCC(F)(F)C(F)F)(N1CCCCC1)N1CCCCC1
 : -9% | ·
> COC(=O)CSc1nnc(-c2sc3cc(OC)ccc3c2Cl)n1C
 : ? | >57
> Nc1ncc([N+](=O)[O-])s1
 : -2% | ·
> NC(=O)CSc1nnc(CNc2ccc(F)cc2)n1CC1CCCO1 (configuration not stated)
 : 0% | >57
> COc1ccc(NC(=O)Cc2nn(C)c(=O)c3ccccc23)c2ncccc12
 : -9% | >57
> Cc1noc(C)c1-c1cc(N(C)Cc2ccco2)ncn1
 : 2% | >57
> O=C(NCc1cn2ccsc2n1)c1cccs1
 : 4% | >57
> COC(=O)c1[nH]c2cc(OC)ccc2c1NC(=O)CN1CCC(C(N)=O)(N2CCCCC2)CC1
 : 1% | >57
> CCCCOc1ccc(C(=O)N2CCC(C)CC2)cc1
 : -21% | >57
> CCN1CCN(CC(O)COc2cccc(OC)c2)CC1 (configuration not stated)
 : -3% | >57
> CCC(C)(C)c1ccc(O)cc1
 : ? | ·
> Cc1nn(-c2ccc(C(=O)Nc3nnc(C4CC4)s3)cc2)c(C)c1Cl
 : 2% | >57
> CO[C@@H]1COC(=O)C/C=C\[C@@H](C)COC(=O)[C@H](COCc2ccccc2)NC(=O)C/C=C\[C@H]1C
 : -5%[8 µM] | ·
> COc1ccc(-n2c(Cc3cccn3C)nnc2SCC(=O)N2CCCC2)cc1
 : 20% | >57
> Cc1nc2ccc(NC(=O)Cc3cccs3)cc2s1
 : -9% | >57
> Cc1ccc(N(CC(=O)O)S(=O)(=O)c2cccc3nonc23)cc1
 : 4% | >57
> Cc1cc2c(c(=O)o1)C1(C(=O)N(CC(=O)O)c3ccccc31)C(C#N)=C(N)O2 (configuration not stated)
 : 8% | >57
> CCn1c(C(C)NC(=O)c2cccs2)nc2ccccc21 (configuration not stated)
 : 1% | >57
> O=C(Nc1cccc(F)c1)c1cccc(S(=O)(=O)N2CCOCC2)c1
 : -11% | >57
> CCOC(=O)c1sc(=S)n(-c2ccc(F)c(F)c2)c1N
 : -2% | >57
> CCC(C)N(C(=O)COC(=O)Cc1n[nH]c(=O)c2ccccc12)C1CCS(=O)(=O)C1 (configuration not stated)
 : ? | >57
> CC(=O)O[C@H]1CC[C@H]2[C@@H]3CCC4=C[C@@H](C5SCCS5)[C@H](OC(C)=O)C[C@]4(C)[C@H]3CC[C@@]12C
 : -22%[8 µM] | >57
> O=C(O)c1ccccc1/C=N\N=C1c2ccccc2-c2ccccc21
 : ? | >57
> CCOC(=O)c1ccc(S(=O)(=O)N2CCN(S(=O)(=O)CC)CC2)cc1
 : 5% | >57
> CCc1ccc2[nH]c(=O)c(CN(Cc3ccc4c(c3)OCO4)C(=O)c3ccco3)cc2c1
 : 6% | >57
> C#CCN1C(=O)C(O)(CC(=O)c2cccc(OC)c2)c2ccccc21 (configuration not stated)
 : -2% | >57
> O=C(c1ccccc1F)N1CCN(c2cccc(C(F)(F)F)c2)CC1
 : 10% | >57
> COCCCNC(=O)CCS(=O)(=O)Cc1ccc(C)cc1
 : 0% | >57
> CCC1Oc2ccc(C)cc2N(CC(=O)NCc2cc(OC)ccc2OC)C1=O (configuration not stated)
 : -10% | >57
> CCOC(=O)C1=C(CSc2nccn2C)NC(=O)NC1c1ccc2c(c1)OCO2 (configuration not stated)
 : ? | >57
> CCC1Oc2ccc(C)cc2N(CC(=O)NCCc2ccc(OC)c(OC)c2)C1=O (configuration not stated)
 : -23% | >57
> CCN(CC)CCn1c(=S)[nH]c2cc3c(cc2c1=O)OCO3
 : ? | >57
> CC[C@H](C(=O)[C@H](C)[C@H](O)[C@H](C)CCc1ccc(C)c(O)c1C(=O)O)[C@H]1O[C@](CC)([C@@H]2CC[C@@](O)(CC)[C@H](C)O2)C[C@H]1C
 : 0.32µM* | >57
> Cc1c(NC(=O)CCCCCN2C(=O)C3C4C=CC(C4)C3C2=O)c(=O)n(-c2ccccc2)n1C (configuration not stated)
 : 2% | >57
> Fc1ccc(Cn2nnc(-c3ccc(CN4CCOCC4)cc3)n2)cc1
 : 6% | >57
> CC(C)NC(=O)Cn1cnc2c1c(=O)n(C)c(=O)n2C
 : -13% | >57

# Continuation.
# Order of results – LT uptake inh | SmPrx2 inh
> COc1ccc(S(=O)(=O)N(C)CC(=O)NCc2cccnc2)cc1
 : 13% | >57
> O[C@@H](COc1cccc2ccccc12)CN1CCOCC1
 : ? | >57
> O=C(Nc1cccc2nsnc12)c1ccc(F)cc1
 : ? | >57
> CN(Cc1nc2ccccc2c(=O)[nH]1)CC(O)COCc1ccco1 (configuration not stated)
 : 2% | >57
> NC(=O)C1C(c2ccccc2)=C1c1ccccc1
 : -4% | ·
> CCCCCN(C(=O)NC(=O)Nc1ccccc1OC)S(C)(=O)=O
 : -5% | >57
> CC1CN(CC(O)COc2ccc(C(=O)c3ccccc3)cc2)CC(C)O1 (configuration not stated)
 : ? | >57
> CCN(CC)S(=O)(=O)c1cc(C(=O)NC2CCCCC2)ccc1C
 : -6% | >57
> CCCn1c(-c2ccc(F)cc2)nc2c(N3CCCN(Cc4ccccc4)CC3)nc(C)nc21
 : 6.3µM* | ·
> O=c1c2ccccc2c(/C=N/n2cnnc2)c(O)n1-c1ccccc1
 : -7% | >57
> CCC(=O)c1cccc2c1N=CC1=C(CC(C)(C)CC1=O)N2
 : 2% | >57
> O=c1c(-c2cccc(F)c2)nc2cncnc2n1Cc1ccccc1Cl
 : ? | >11
> COc1ccccc1CNC(=O)COC(=O)C1=COCCO1
 : 9% | >57
> O=C(C1CCCCC1)N(Cc1nc2sc3c(c2c(=O)[nH]1)CCCC3)Cc1cccs1
 : -7% | >57
> O=c1[nH]cnc2nn(-c3ccccc3)nc12
 : ? | >57

# These rows are one share of the data; the hit share may differ from the screen's.
